BJeLR viability: kills HRASV12-expressing BJeLR cells; BJeLR (HRASV12) viability, CellTiter-Glo ATP luminescence, 48 h; reference of the scale not given here; hit rate 0.17% among 300,000; AID 1554; inhibition, % (test concentration not listed);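 active = replicate mean above 50%; inconclusive = above 50% but judged a plate artefact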;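 note: 50 nL library stock added to about 25 µL; numbers are from one replicate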
Autofluor counter: flagged as autofluorescent in microsphere protease counterscreen. compound autofluorescence counterscreen, microsphere flow cytometry; stronger effect = higher value. fluorescence intensity (concentration not given with the values). hit rate 3.1% among 360,000;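 active = at least 3 SD above the mean of all compounds, about 16000 in these data; inconclusive = too few beads counted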;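 note: 100 nL of 1 mM stock went into each well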
RN4220 kill: S. aureus RN4220 growth inhibition; hit rate 0.33% among 330,000; inhibition, % (concentration not given with the values); OD600, 16 h;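 active = z-score of -3 or lower and OD600 up to 0.18 on both plates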;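 note: plate controls were untreated cells for no effect and reference antibiotic for full effect; stock transfer was 100 nL into about 80 µL; one replicate is shown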
PrP UTR inh: inhibition of PrP 5' UTR reporter expression | cell-based PrP 5' UTR mRNA reporter, plate reader | inhibition, % (no concentration beside the values) | hit rate 0.35% among 340,000;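 active = every replicate at 50% or more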;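 note: 0 = median of the neutral control wells; tested in H4 reporter cells; numbers are from one replicate; inactives centre near -14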
Sa ugtP lethal: compounds lethal to S. aureus RN4220 ugtP deletion mutant. growth inhibition, % (no concentration beside the values). hit rate 0.54% among 330,000. AID 1259309. OD600 growth, 16 h; some inactives read as strong as hits;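 active = z-score under -3 and OD600 up to 0.15 on both plates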;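 note: plate controls were untreated wells for no effect and antibiotic for full effect; wells of about 80 µL received 100 nL stock; the first replicate is given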
Mtb hypoxia inh: inhibitors of hypoxia-regulated fluorescent reporter in Mycobacterium tuberculosis | M. tuberculosis hypoxia-regulated fluorescent reporter, fluorescence | fluorescence inhibition, % (concentration not given with the values) | hit rate 0.1% among 300,000 | AID 1159583;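 active = 35 to 45% if threefold the growth effect, above 45% if 1.5-fold the growth effect; inactive = the rest, general growth blockers included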;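 note: wells of about 50 µL received 100 nL stock; 0% = vehicle wells and 100% = reference inhibitor wells; whole bacteria with a GFP reporter of the hypoxia response; strong numbers were not always called active; many hits fall short of the cut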
Mtb hypoxia inh growth: further read-out of Mtb hypoxia inh, marked with its call; growth inhibition, %; measured here: M. tuberculosis growth (absorbance);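 0% = vehicle and 100% = reference antibiotic; read after six days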
An asterisk follows results filed as active; ? = inconclusive; / = no result given; & = joins results of further samples. An unsorted share of the library. About 4% of those tested had a hit in this group.

Molecule | BJeLR viability | Autofluor counter | RN4220 kill | PrP UTR inh | Sa ugtP lethal | Mtb hypoxia inh | Mtb hypoxia inh growth
CN=C1N(C)C[C@@H]2[C@@H]3C(=O)N(Cc4ccccc4)C(=O)[C@@H]3[C@](Cc3ccccc3)(C(=O)OC)N12 | / | 3083 | 0.8 | -8 | -4 | -8 | -2
Nc1ccc(Br)cc1C(=O)c1ccccc1 | -2 | 2650 | 5.4 | -5 | -10 | -6 | 4
Cc1ccc(S(=O)(=O)n2nc(-c3ccc(Cl)cc3)nc2NCc2ccco2)cc1 | 15 | 23333* | -4.5 | -17 | 31 | 4 | 16
Cc1cc(C(=O)Nc2nc3ccc(S(C)(=O)=O)cc3s2)c(C)o1 | 7 | 22296* | -2.7 | -16 | -6 | -8 | 12
CC/C=C/C(=O)N1CC2(CC(c3cccc(NC(=O)CCCCC)c3)=NO2)C[C@H]1C(N)=O (stereo partly drawn) | 13 | 3631 | / | -22 | / | / | /
COC(=O)c1cc(C#N)c(NCc2ccccc2)nc1C | -6 | 2129 | -8.7 | 1 | -15 | / | /
CCC(C)NC(=O)CSc1nnc(-c2cc(-c3cccs3)nc3ccccc23)o1 (stereo not drawn) | -4 | 2587 | 2.7 | -14 | -14 | 0 | 0
COc1cccc2c1OCC/C2=N\NC(=O)COc1ccccc1C | -5 | 1897 | / | -13 | / | / | /
Cc1ccc(SCC(=O)Nc2nncs2)cc1 | -2 | 3305 | 6.3 | / | 3 | 1 | -1
COc1cccc(C=Nn2cnc3c(cnn3-c3ccccc3)c2=O)c1 | / | / | 3.7 | / | 7 | -8 | 12
CCOc1ccc(-n2c(SC(C)C(=O)OC)nc3c(c2=O)SCC3)cc1 (stereo not drawn) | 3 | 13477 | 4.1 | -35 | -2 | 10 | 2
O=C(NCc1ccccn1)C(=O)NCC(c1ccco1)N1CCN(c2ccc(F)cc2)CC1 (stereo not drawn) | 5 | 5573 | 0.4 | -10 | -1 | 7 | 2
Cc1cc(C)c2nc(N3CCC(C(=O)NCCCN4CCCC4=O)CC3)sc2c1 | -5 | 5762 | 3.5 | -6 | 5 | 15 | 5
C=CCn1c(SCc2csc(-c3ccc(Cl)cc3)n2)nnc1-c1ccccc1OC | 1 | 2483 | 0.5 | -34 | 2 | 5 | 7
COc1cc(CNCc2ccc(C(=O)O)cc2)ccc1OCc1ccc(F)cc1 | 15 | 3326 | -1.2 | 0 | 3 | -3 | -6
CCc1nccn1S(=O)(=O)c1ccccc1[N+](=O)[O-] | -6 | 4065 | 6.8 | -23 | 4 | 4 | 15
Cc1ccsc1C(=O)N/N=C/c1ccc2c(c1)OCO2 | 34 | 7751 | / | -24 | / | / | /
COc1cc(C)c(C)cc1S(=O)(=O)n1c(C)nc2ccccc21 | 5 | 3964 | / | -17 | / | / | /
O=C(NC1CCCCC1)C(c1ccc2ncccc2c1)N(Cc1ccccc1)C(=O)c1cccs1 (stereo not drawn) | 7 | 10568 | -1.4 | -16 | 60 | 0 | 8
O=C(NNC1=NCCCCC1)Nc1ccc(Cl)cc1 | -4 | 5645 | -3.9 | -36 | 5 | -1 | -19
c1ccc(CCc2nc(-c3ccc(-n4cccc4)cc3)no2)cc1 | 3 | 6065 | 3.0 | -32 | 11 | 7 | 4
CC1CCc2sc3nc(N4CCN(CCO)CC4)n4ncnc4c3c2C1 (stereo not drawn) | -16 | 4908 | 0.4 | -31 | -9 | / | /
CC(C)(C)c1ccc(/C=C/C(=O)Nc2ncccn2)cc1 | -11 | 2580 | 1.0 | -83 | 1 | -1 | 0
COc1ccc(-c2csc(N(CCCN(C)C)C(=O)c3ccc(Br)cc3)n2)cc1 | -16 | 3941 | -7.6 | -8 | 6 | 3 | 6
Cn1c(N)c(C(=O)COC(=O)CC(NC(N)=O)c2ccc(Cl)cc2)c(=O)n(C)c1=O (stereo not drawn) | / | 5171 | -0.1 | -22 | -1 | 8 | 8
COCCNc1oc(-c2cccs2)nc1S(=O)(=O)c1ccc(C)cc1 | 1 | 3929 | 3.6 | -1 | 0 | 14 | 8
O=C(COC(=O)CSCC(=O)N1CCCCC1)Nc1ccc(Cl)cc1 | 14 | 9965 | 19 | -20 | -17 | 1 | 6
CCCCC(=O)Nc1ccc(C(=O)NNC(=S)NC(=O)c2ccccc2[N+](=O)[O-])cc1 | 9 | 5073 | 4.0 | -22 | -10 | -10 | 6
CC(=O)Nc1cccc(C(=O)OCC(=O)NC(=O)c2ccccc2)c1 | 0 | ? | 0.2 | -18 | 0 | 7 | 0
Cc1ccc(C(=O)NCC(=O)Nc2ccc3c(c2)CCC3)cc1C | / | 4059 | 0.1 | -20 | 15 | -2 | -6
CCC(=O)N1CCc2cc(Br)cc(S(=O)(=O)NC3CCN(Cc4ccccc4)CC3)c21 | -6 | 4093 | -1.2 | -13 | 1 | -7 | 5
O=C(NNc1cc(Cl)ccc1Cl)C1CCC1 | 6 | 3925 | 1.7 | -17 | -5 | -4 | -4
Cc1ccc(C(=O)NCCc2csc(C)n2)cc1 | -4 | 5550 | 17 | -47 | 18 | 0 | 4
CC(c1ccccc1)C1CC(=O)N(CC(=O)O)C1=O (stereo not drawn) | 9 | 6514 | 4.1 | -10 | 11 | 0 | 5
COc1cccc(NC(=O)CN(C)C(=O)CNC(=O)c2ccc(Oc3ccccc3)cc2)c1 | 6 | 5942 | 2.9 | -32 | 0 | -10 | 9
CCCn1cnc2c(N)c(C)c(C)cc21 | 1 | 5404 | 8.3 | -20 | -7 | 6 | 12
Cc1nc(C(=O)NC(C)C)nn1-c1cc(Cl)cc(Cl)c1 | -4 | 5160 | 6.3 | -23 | -6 | 0 | -10
COC(=O)C1CCC(C)C(c2ccc(C)cc2)N1C(=O)c1ccc(C=NOCCC2C=CC(OC(C)=O)C(COC(C)=O)O2)cc1 (stereo not drawn) | / | / | 10 | / | 4 | 0 | 11
O=C1CC(c2ccc(S(=O)(=O)N3CCN(c4ccccc4)CC3)cc2)CN1 (stereo not drawn) | 1 | 9755 | -0.2 | -14 | 2 | -4 | -4
Cc1ccc(C(=O)NCCNC(=O)c2ccc(C)o2)o1 | -5 | 7684 | 3.6 | -4 | 0 | 14 | 1
Cc1ccc(NC(=O)Cn2nc(-c3ccco3)ccc2=O)cc1Cl | -1 | 5728 | -4.0 | -20 | 5 | 2 | 5
CC(C)COn1c(=S)[nH]c2ccccc2c1=O | -3 | 5818 | 1.8 | -21 | -1 | 8 | 16
Cc1ccc(N2CC(C(=O)NCc3nnnn3-c3ccc(C)c(C)c3)CC2=O)cc1 (stereo not drawn) | 1 | 4104 | / | -24 | / | / | /
COC(=O)C(NS(=O)(=O)c1ccc(N2CCCC2=O)cc1)c1ccccc1 (stereo not drawn) | 4 | 4669 | 1.8 | -1 | 1 | 11 | 2
CC(=O)Nc1cccc(Oc2nc(C(F)(F)F)nc3ccccc23)c1 | 2 | 3904 | 0.1 | -14 | 8 | 7 | 5
COc1ccc(CCN(C)CCN2C(=O)c3ccccc3C2=O)cc1OC | 13 | 2412 | 0.5 | -4 | -6 | / | /
O=C(COC(=O)COc1ccccc1F)NC1CC1 | / | 8720 | 2.8 | -22 | 3 | 7 | 1
COc1ccc(NC(=O)C(c2ccc(C)cc2)N(C)C(=O)CNC(C)=O)cc1 (stereo not drawn) | 7 | 4695 | 2.5 | -6 | -2 | 19 | 11
Cc1cc(NC(=O)CSCC(=O)NCc2cccc(C(F)(F)F)c2)no1 | -4 | 5806 | 0.8 | -6 | 1 | -5 | 5
COc1ccc(-n2c(C)nn(CCOc3ccccc3)c2=O)cc1 | 26 | 4293 | 5.9 | -12 | 5 | 6 | 5
Cn1c(=O)n(CC(=O)O)c(=O)c2c1nc1n2CCS1 | -1&0 | 8891&4777 | 4.6&2.9 | -15&-21 | 3&1 | 6&8 | 17&12
COc1cc2c(cc1OC)C(C)N(C(=O)Cn1ncc3c1-c1cc(C)ccc1OC3)CC2 (stereo not drawn) | 4 | 4692 | 2.2 | 17 | 8 | / | /
Cc1ccc2nc(SCCC#N)nc(C)c2c1 | 8 | 4543 | 7.6 | -6 | 2 | / | /
c1ccc(CN2CCN(CCN3CCn4c3nc3ccccc34)CC2)cc1 | 9 | 4144 | 1.2 | -8 | 2 | / | /
COc1ccc(CCNC(=O)C2CC(O)CN2S(=O)(=O)c2ccc(Cl)cc2)cc1OC (stereo not drawn) | / | 2979 | -0.5 | -5 | -5 | 4 | 4
COc1cccc(C(=O)NCC(=O)N2CCC3(CC2)NCCc2[nH]cnc23)c1 | 0 | 4826 | 0.9 | -14 | -2 | 1 | 6
Cc1ccc(SCc2cc(=O)[nH]c(N3CCOCC3)n2)cc1 | -4 | 4138 | -0.1 | -16 | -5 | 0 | 13
COCC1CCCCN1Cc1cn[nH]c1-c1ccc(OC)cc1OC (stereo not drawn) | 8 | 4356 | 9.1 | -4 | 4 | 8 | 8
O=C(CN1CCN(c2ccccc2)CC1)N1N=CCC1c1ccccc1 (stereo not drawn) | 5 | 2503 | 1.5 | 1 | 12 | 3 | -1
Cc1ccc(/C=N/N2CCN(Cc3ccccc3)CC2)s1 | 1 | 9709 | / | -18 | / | / | /

The list goes on:
Molecule | BJeLR viability | Autofluor counter | RN4220 kill | PrP UTR inh | Sa ugtP lethal | Mtb hypoxia inh | Mtb hypoxia inh growth
COc1c(C)cccc1C(=O)Nc1ccc(CN2CCOCC2)cc1 | -3 | 9289 | 1.3 | -118 | 7 | 9 | 0
CCCCNC(=S)N(C)/N=C/c1ccc(F)cc1 | -14 | 2487 | / | -8 | / | / | /
COC(=O)[C@]1(CC(C)C)N[C@H](c2ccc(-c3cccc(Cl)c3)cc2)[C@@H]2C(=O)N(C)C(=O)[C@@H]21 | 7 | 3203 | / | -15 | / | / | /
CCCCCn1c(SCCCC)nc2c1c(=O)[nH]c(=O)n2C | 4 | 4142 | 3.6 | -4 | -12 | 5 | 1
O=C(Nc1cccc(-c2nc3ccccc3[nH]2)c1)c1ccc(C(=O)Nc2cccc(-c3nc4ccccc4[nH]3)c2)cc1 | 8 | 3150 | 4.2 | -30 | 10 | 11 | 2
COc1ccc(/C=N/NC(=O)c2c(C)nc3ccccn23)cc1[N+](=O)[O-] | 9 | 6154 | / | -10 | / | / | /
Cc1ccc(NC(=O)CN2C(=O)NC(C)(c3ccc(Cl)cc3)C2=O)cc1 (stereo not drawn) | 1 | 4187 | -7.7 | -18 | 9 | 12 | -2
C=CCn1c(SCn2nnc3ccccc3c2=O)nnc1-c1ccc(Br)cc1 | -6 | 8671 | 3.4 | -15 | 4 | 15 | 3
CCCC1=C(C(=O)OCC)C(c2cccs2)n2ncnc2N1 (stereo not drawn) | 0 | 5734 | 1.2 | -24 | 4 | -1 | -6
COc1ccc(NC(=O)c2cc([N+](=O)[O-])ccc2N2CCCC2)cc1S(N)(=O)=O | / | ? | 1.7 | -21 | 2 | 2 | -6
O=C1Nc2ccccc2/C1=C\C(=O)c1ccccc1 | 32 | 3597 | 98* | -19 | 98* | 3 | 5
CC1(C)CC(NC(=O)CCc2ccccc2)CC(C)(C)N1 | -5 | 3070 | 23 | -16 | 21 | -3 | -9

A draw from above in order of count of non-hydrogen atoms, low to high:
Molecule | BJeLR viability | Autofluor counter | RN4220 kill | PrP UTR inh | Sa ugtP lethal | Mtb hypoxia inh | Mtb hypoxia inh growth
CCCCCn1c(SCCCC)nc2c1c(=O)[nH]c(=O)n2C | 4 | 4142 | 3.6 | -4 | -12 | 5 | 1
Cc1ccc(NC(=O)CN2C(=O)NC(C)(c3ccc(Cl)cc3)C2=O)cc1 (stereo not drawn) | 1 | 4187 | -7.7 | -18 | 9 | 12 | -2
O=C(Nc1cccc(-c2nc3ccccc3[nH]2)c1)c1ccc(C(=O)Nc2cccc(-c3nc4ccccc4[nH]3)c2)cc1 | 8 | 3150 | 4.2 | -30 | 10 | 11 | 2

Continuation.
Molecule | BJeLR viability | Autofluor counter | RN4220 kill | PrP UTR inh | Sa ugtP lethal | Mtb hypoxia inh | Mtb hypoxia inh growth
COc1cc2nc(-c3ccc(Br)o3)oc(=O)c2cc1OC | 3 | 2972 | 3.8 | -25 | -1 | / | /
c1cnc(NC2CCCCCC2)nc1 | 8 | 5762 | 0.3 | -12 | 6 | 1 | 7
COC(=O)C1C(O)=C(C=Nc2ccc(N)cc2)C(=O)CC1(C)C (stereo not drawn) | 1 | 8440 | 5.3 | -27 | 1 | 0 | -1
COc1ccc(Nc2c(C)cccc2C)cc1 | 7 | 10053 | 13 | 32 | 48 | 13 | 9

Source: PubChem BioAssay
